CAL PDZ FP-1 – human CAL PDZ-peptide interaction inhibition; purified CAL PDZ, TMR-peptide fluorescence polarization, 1 h; inhibition, % at 20 µM; 0.02% of 330,000 active; AID 504414;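 active means highest replicate inhibition of at least 40%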;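 further: plate controls were DMSO neutral control wells for no effect and unlabeled competitor peptide control wells for full effect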
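material = purified tagged CAL PDZ domain construct (CerCALP) | buffer or medium = sodium phosphate/NaCl buffer pH 7.4 with TCEP, IgG, Thesit | reagent = TMR-labelled reporter peptide T*-PRC34 bound in PDZ groove | incubation = 1 h room-temperature incubation prior to read | measured by = fluorescence polarization (mP) | evaluation = percent inhibition from loss of millipolarization | control set = unlabelled peptide and DMSO controls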
Rtt109 HAT inh – inhibitors of Candida albicans Rtt109/Vps75 histone acetyltransferase. Q5AAJ8. 0.16% of 330,000 active. AID 540336. inhibition, % at 34.9 µM. purified Rtt109/Vps75, ThioGlo CoA-SH fluorescence, 4 h;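 active means inhibition of at least 50% in every replicate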
Target sequence (Q5AAJ8 whole entry, looked up): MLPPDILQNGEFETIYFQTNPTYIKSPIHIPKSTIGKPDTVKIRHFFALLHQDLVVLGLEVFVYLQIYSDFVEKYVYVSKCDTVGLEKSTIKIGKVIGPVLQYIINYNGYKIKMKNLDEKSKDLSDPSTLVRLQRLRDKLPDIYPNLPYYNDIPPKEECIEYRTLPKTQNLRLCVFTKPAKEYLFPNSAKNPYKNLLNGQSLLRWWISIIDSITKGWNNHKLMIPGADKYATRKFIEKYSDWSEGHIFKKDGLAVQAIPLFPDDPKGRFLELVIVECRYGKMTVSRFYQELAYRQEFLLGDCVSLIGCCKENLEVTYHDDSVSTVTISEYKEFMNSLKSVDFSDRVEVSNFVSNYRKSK
dFosB activator – mouse delta FosB homodimer activation; purified delta FosB, TAMRA-CDK5 oligo fluorescence polarization; percent of positive-control signal above neutral wells; activation, % at 25 µM; 0.99% of 340,000 active; AID 493131;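 active means mean activation above about 17%, with every replicate also reaching it, limit read from the data, passing the limit was not always enough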;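 further: fluorescence polarization rise as delta FosB binds a TAMRA Cdk5 AP-1 oligo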
NSD2 HMT inh – inhibitors of human histone methyltransferase NSD2; 0.54% of 310,000 active; NSD2 peptide methylation, AlphaScreen, 120 min; O96028; inhibition, % at 12.5 µM; in the data active means inhibition above about 50%
CAL PDZ FP-2 – inhibitors of human CAL PDZ peptide binding; inhibition, % at 24.9 µM; Q9HD26; purified CAL PDZ, TMR-peptide fluorescence polarization, 1 h; AID 602252; 0.92% of 300,000 active;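 active means mean inhibition of at least 30% with at least half of replicates also reaching 30%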;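 further: 0% = DMSO neutral control and 100% = excess unlabeled competitor peptide PRC23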
Active calls of the source: *; / = not tested or not shown.

Structure	CAL PDZ FP-1	dFosB activator	CAL PDZ FP-2	Rtt109 HAT inh	NSD2 HMT inh
CCOC(=O)c1c(C)oc2ccc(O)cc12	-1.3	-5.4	-1.9	2.8	/
CC(C)(C)c1ccc(-n2ncc3c2CCCC3NC(=O)CCN2CCCC2=O)cc1 (centres undefined)	-2.5	-10.3	-3.3	13.2	6.4
CN1[C@@H]2CC[C@H]1CC(OC(=O)[C@H](CO)c1ccccc1)C2 (some centres undefined)	0.2	4.6	-0.6	-3.1	/
C[C@H](CS)C(=O)N1CCC[C@H]1C(=O)O	-0.9	5.6	7.2	5.0	/
CN1[C@@H]2CC[C@H]1CC(OC(=O)C(CO)c1ccccc1)C2 (some centres undefined)	-0.9	4.5	-1.1	-2.5	/
Cc1nn(-c2ccccc2)c(Cl)c1/C=N/NC(=O)c1ccncc1	-2.2	-9.8	-5.7	2.4	-4.1
CN(C)CCCN1c2ccccc2CCc2ccccc21	0.0	-0.8	0.1	4.2	/
COc1cccc(N2CCN(CC(=O)Nc3ccc(-n4cnnn4)cc3)CC2)c1	0.8	3.3	-2.4	-6.8	-0.3

One compound at a time, from the list above. Order of screens: CAL PDZ FP-1, dFosB activator, CAL PDZ FP-2, Rtt109 HAT inh, NSD2 HMT inh
`CN1[C@@H]2CC[C@H]1CC(OC(=O)[C@H](CO)c1ccccc1)C2` (some centres undefined) is listed as 0.2, 4.6, -0.6, -3.1, /
`CN(C)CCCN1c2ccccc2CCc2ccccc21` is listed as 0.0, -0.8, 0.1, 4.2, /
`COc1cccc(N2CCN(CC(=O)Nc3ccc(-n4cnnn4)cc3)CC2)c1` is listed as 0.8, 3.3, -2.4, -6.8, -0.3
`CCOC(=O)c1c(C)oc2ccc(O)cc12` is listed as -1.3, -5.4, -1.9, 2.8, /

Arranged by number of heavy atoms (ascending): some entries from above
Structure	CAL PDZ FP-1	dFosB activator	CAL PDZ FP-2	Rtt109 HAT inh	NSD2 HMT inh
C[C@H](CS)C(=O)N1CCC[C@H]1C(=O)O	-0.9	5.6	7.2	5.0	/
CN1[C@@H]2CC[C@H]1CC(OC(=O)[C@H](CO)c1ccccc1)C2 (some centres undefined)	0.2	4.6	-0.6	-3.1	/
Cc1nn(-c2ccccc2)c(Cl)c1/C=N/NC(=O)c1ccncc1	-2.2	-9.8	-5.7	2.4	-4.1

The list is partial (hit frequency here may not be typical).
